CtBP-E1A inh: blocks the CtBP interaction with E1A | AlphaScreen GST-E1A/His-CtBP binding, 1536-well; stronger effect = lower value; control for the full effect not named in the record | activity change, % (no concentration beside the values) | hit rate 0.49% among 340,000 | AID 651724; in the data active means activity change below about -65%; inconclusive means about -30% to -65%; inactive means above about -30%; also: % is scaled to controls: 0 for no effect and ±100 for the full control effect; compound concentration not given in the record
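In 5 uL wells, 23 nL compound meets equimolar GST-E1A and His-CtBP (5X stock 125 nM each) for 2 h, 37 °C. Beads (5X, 50 ug/mL) then 1 h, 37 °C, dark.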
D2 agonist: agonists of human D2 dopamine receptor (beta-arrestin) | P14416 | DiscoveRx PathHunter D2 beta-arrestin, luminescence, 90 min; 100% = 57 uM dopamine signal | hit rate 0.084% among 360,000 | AID 624465 | activation, % (no concentration beside the values); in the data active = activation above about 40%; inconclusive = about 15% to 40%; inactive = below about 15%; also: compound concentration not given in the record; the text of the record calls up to 30% inactive
Target sequence (P14416 whole entry, looked up): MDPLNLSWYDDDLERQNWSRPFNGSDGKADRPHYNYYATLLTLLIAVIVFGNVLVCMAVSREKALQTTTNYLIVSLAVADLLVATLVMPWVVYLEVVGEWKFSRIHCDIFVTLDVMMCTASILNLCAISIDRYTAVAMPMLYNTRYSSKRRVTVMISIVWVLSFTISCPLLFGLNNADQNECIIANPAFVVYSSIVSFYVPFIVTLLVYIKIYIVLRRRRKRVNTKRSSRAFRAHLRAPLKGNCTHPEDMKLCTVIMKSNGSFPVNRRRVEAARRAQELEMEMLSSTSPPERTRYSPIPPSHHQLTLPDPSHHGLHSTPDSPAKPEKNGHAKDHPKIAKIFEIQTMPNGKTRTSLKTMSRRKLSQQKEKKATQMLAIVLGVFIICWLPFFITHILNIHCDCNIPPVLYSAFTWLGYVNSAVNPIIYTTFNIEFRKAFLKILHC
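DiscoveRx PathHunter D2 beta-arrestin cells (2,100/well) attached overnight, then compound-stimulated 90 min at 37 C in HBSS/10 mM HEPES/0.1% Tween-20 buffer; beta-galactosidase complementation read by luminescence after 1 h at ambient temperature. Dopamine 57 uM final (EC100) as control.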
Six1-Eya2 blk: inhibitors of human Six1/Eya2 interaction | activity change, % (concentration not given with the values) | AlphaScreen GST-Six1/His-Eya2 binding, biochemical; stronger effect = lower value; control for the full effect not named in the record | Q15475+O00167 | hit rate 0.56% among 360,000 | AID 651725; in the data active = activity change below about -65%; inconclusive = about -30% to -65%; inactive = above about -30%; also: % is scaled to controls: 0 for no effect and ±100 for the full control effect
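Compounds are tested against tagged Six1 and Eya2 proteins bridged by glutathione donor and nickel acceptor beads; after a one-hour incubation at 37 °C without light, AlphaScreen emission is recorded.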
gsp antagonist: antagonizes gsp, the McCune-Albright syndrome mutation; hit rate 0.4% among 340,000; gsp-mutant cells, cAMP HTRF, 30 min; control for the full effect not named in the record; Potency, µM (top dose mostly 76.9 µM), inactives show top-dose activity change, negative = inhibition, usual class: inhibitors; AID 624288; active = falling curve of any shape with a large fitted effect; inconclusive = falling curve, mostly with a smaller effect; inactive = flat or rising curve; cell line not stated here;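 also: intracellular cAMP measured with PDE inhibitor Ro 20-1724 present during compound exposure; potency is read from the fitted curve at half-maximal effect; % is scaled to controls: 0 for no effect and ±100 for the full control effect; nearly all actives have a fitted effect of over 65% in size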
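HTRF cAMP measurement after 30 min RT detection following 30 min, 37C compound treatment alongside […] (added as 300 uM solution) in G418-selected cells seeded at 2000/well and grown 16–24 h.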
gsp ag: activates gsp, the McCune-Albright syndrome mutation. gsp mutant cells, cAMP HTRF, 30 min; control for the full effect not named in the record. Potency, µM (titrated, usually from 76.9 µM), inactives show at the top dose activation (cAMP increase), usual class: activators. hit rate 0.13% among 340,000. AID 624287; active = well fitted activation curve with a large enough effect; inconclusive = small, poorly fitted or top-dose-only effect, or another doubt; inactive = no such curve, though single readings can be large or run the other way; cell line not stated here;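 also: phosphodiesterase inhibitor Ro 20-1724 added with compounds to block cAMP breakdown; potency is read from the fitted curve at half-maximal effect; nearly all actives have a fitted effect of over 60% in size; about a fifth of the inactives were tested at one dose only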
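Cells in DMEM/10% FBS with G418 were pretreated with compounds in DMSO plus […] (300 uM stock) for 30 min at 37C. cAMP was measured by HTRF (cAMP-d2 plus anti-cAMP antibody-K) after 30 min at room temperature.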
D2 potentiator: potentiates the human D2 dopamine receptor allosterically; DiscoveRx D2 beta-arrestin cells, luminescence, 90 min; 100% = 57 uM dopamine signal; potentiation, % (concentration not given with the values); AID 624464; hit rate 0.23% among 360,000; active = potentiation of 50% or more; inconclusive = 30% to 50%; inactive = 30% or less;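 also: compound concentration not given in the record; tested on top of an EC20 dose of dopamine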
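PathHunter beta-arrestin assay in DiscoveRx D2 cells. Compounds were added with an EC20 of dopamine (50 nM final) for 90 min at 37 deg C. Luminescence was read 1 h after detection reagent, with 57 uM dopamine as the EC100 control.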
An asterisk follows results filed as active; u = inconclusive; x = not tested or not shown; [ ] = remark or other dose.

SMILES | CtBP-E1A inh | D2 agonist | Six1-Eya2 blk | gsp antagonist | gsp ag | D2 potentiator
O=C(O)COCC(=O)Nc1ccc(-n2nc(C(F)(F)F)cc2-c2cccs2)cc1 | 2 | -4.3 | 33 | -8% | 32% | 10
O=C(NCC(c1cccs1)N1CCOCC1)C1CCN(S(=O)(=O)c2cc(Cl)ccc2Cl)CC1 (stereo not drawn) | -2 | -1.9 | -13 | 3% | -1% | -8
CCN(CC)Cc1c(O)ccc2c([N+](=O)[O-])c(C)n(-c3ccc(OC)cc3)c12 | -5 | -2.0 | -17 | -10% | 26% | 8
C/C(=N\NC(=S)NCc1ccccc1)c1ccco1 | -10 | -4.6 | -12 | -3% | 29% | -10
CCN(CC)C(=O)CC(c1ccc(N(C)C)cc1)c1c(OC)cc(OC)c2c(-c3ccccc3)cc(=O)oc12 (stereo not drawn) | u | -1.1 | u | -19% | x | -16
O=C1c2ccccc2C(O)(c2ccccc2)N1CCc1ccccc1 (stereo not drawn) | x | 0.1 | -2 | -15% | -28% | 0
CN(CC(=O)Nc1cccc(F)c1)C(=O)C1(c2ccccc2)CC1 | -1 | 0.7 | -4 | 17% | 43% | -1
CCn1nnnc1SCC(=O)Nc1nc(C)c(C)s1 | -1 | -2.2 | 3 | 8% | 19% | 5
CCN(CC)c1nc2c(c(=O)[nH]c(=O)n2C)n1Cc1ccccc1 | 5 | 1.2 | -2 | -9% | 2% | -3
CCC(C)NC(=O)c1ccc(CSCc2ccc(Cl)cc2)o1 (stereo not drawn) | -4 | -3.8 | 0 | -23% | 25% | -4
O=C(NC1CCCCC1)NC1CC2CCC(C1)N2C(=S)NCc1ccco1 (stereo not drawn) | 3 | -1.1 | 0 | -8% | -45%[inhibitor] | 1
COc1cc(OC)cc(-n2nnnc2SCC(=O)N2CCCC2)c1 | 16 | -1.2 | 0 | 8% | 3% | -2
CC(/C=C/c1ccc2c(c1)OCO2)=N\NC(=O)c1cccc([N+](=O)[O-])c1 | -22 | -1.3 | 2 | 5% | 23% | -9
COC(=O)C1=COC(C)C2CN3CCc4c([nH]c5cc(OC)c(OC)cc45)C3CC12 (stereo not drawn) | u | 7.4 | u | -17% | x | -72
COc1ccc(COCC(O)CN2CCc3ccccc3C2)cc1OC (stereo not drawn) | 9 | -2.0 | -20 | 12% | 4%[15.4 µM] | -17
CSc1ccccc1OCc1cc(C(=O)N[C@H]2CCCCNC2=O)no1 | 2 | 2.3 | -5 | 6% | -59%[inhibitor] | 20
COc1ccc(NC(=O)CCC(=O)OCc2ccc(C(=O)Oc3ccc(Cl)cc3)cc2)cc1 | 3 | -2.8 | -3 | -18% | u | 1
O=C(CN1CCN(C2CCS(=O)(=O)C2)CC1)N1N=C(c2ccc(Cl)cc2)CC1c1ccco1 (stereo not drawn) | -7 | -1.3 | -1 | 1% | -3% | -17
CCCCn1c2ccc(C)cc2c2nnc(SCCN3CCCCC3)nc21 | -8 | -1.5 | -5 | 7% | 0% | -14
CC(C)(C)C(=O)Nc1ccc(Sc2ccc([N+](=O)[O-])cc2)cc1 | -11 | 4.6 | -21 | -126% | -16% | -17
CS(=O)(=O)NCc1csc(-c2ccccc2)n1 | 1 | 0.0 | 9 | 0% | u | 8
CCOC(=O)c1c(C)nn(Cc2ccccc2)c1N | -2 | -2.8 | 0 | 2% | -15% | -16
CC(C)N1CCC1(C)C(=O)Nc1nccc2cccnc12 (stereo not drawn) | -11 | 2.0 | -8 | x | x | -4
O=C(CC1Sc2ccccc2NC1=O)NNc1cc(Cl)ccc1Cl (stereo not drawn) | -1 | 2.8 | 8 | -1% | u | -3
COc1ccc(NC(C)C(=O)N/N=C/c2ccc([N+](=O)[O-])s2)cc1 (stereo not drawn) | -21 | u | 1 | 5% | -6%[15.4 µM] | 13
C/C(=N\Nc1cccc2cccnc12)c1ccccn1 | -5 | -3.2 | -15 | 1% | -7%[15.4 µM] | -1
Cc1ccc(C(=O)N2CCN(c3ncccn3)CC2)cc1 | -1 | -2.0 | 3 | 2% | 9% | -5
CC(=O)c1ccc(S(=O)(=O)Nc2c(C)nn(C)c2C)cc1 | -1 | -2.2 | 7 | 6% | 7%[15.4 µM] | 10
O=C(Nc1nc(-c2cccs2)c(-c2cccs2)s1)C1CCCC1 | 6 | -3.2 | 1 | -2% | -2% | -15
CCOc1ccc(CNS(=O)(=O)c2cccs2)cc1OCC | x | 5.2 | -2 | 6% | -17% | 3

For convenience, some entries already given.
SMILES | CtBP-E1A inh | D2 agonist | Six1-Eya2 blk | gsp antagonist | gsp ag | D2 potentiator
C/C(=N\Nc1cccc2cccnc12)c1ccccn1 | -5 | -3.2 | -15 | 1% | -7%[15.4 µM] | -1
Cc1ccc(C(=O)N2CCN(c3ncccn3)CC2)cc1 | -1 | -2.0 | 3 | 2% | 9% | -5
CC(=O)c1ccc(S(=O)(=O)Nc2c(C)nn(C)c2C)cc1 | -1 | -2.2 | 7 | 6% | 7%[15.4 µM] | 10
O=C(Nc1nc(-c2cccs2)c(-c2cccs2)s1)C1CCCC1 | 6 | -3.2 | 1 | -2% | -2% | -15
CCOc1ccc(CNS(=O)(=O)c2cccs2)cc1OCC | x | 5.2 | -2 | 6% | -17% | 3

The listing continues.
SMILES | CtBP-E1A inh | D2 agonist | Six1-Eya2 blk | gsp antagonist | gsp ag | D2 potentiator
O=c1cc(-c2ccccc2)oc2cccc(O)c12 | 0 | 4.1 | 0 | u | x | -11
CCCCC(=O)Nc1ccc(C(=O)NCCN2CCOCC2)cc1 | x | -1.7 | -3 | 5% | 2% | -11
CCOC(=O)C1CCCN(C(=O)/C=C/c2ccccc2[N+](=O)[O-])C1 (stereo not drawn) | 1 | -4.0 | -9 | 19% | 20% | -22
CN(C)CCCN1C(=O)c2cc3ccccc3cc2C1=O | x | 0.9 | 14 | -7% | 19% | -18
Nc1nnc(SCc2ccccc2)n1-c1ccccc1 | 5 | -1.2 | 7 | 6% | -28% | 8
O=C(COC(=O)c1n[nH]c2ccccc12)NCc1ccccc1 | 0 | -4.2 | 15 | 3% | -11% | -8
c1ccc(CSCc2nc3ccccc3[nH]2)cc1 | 4 | -6.6 | 19 | 3% | 14% | -16
CCS(=O)(=O)c1ccc2oc(Nc3ccccc3C)nc2c1 | -1 | -3.2 | -1 | 8% | 5% | -1
Cc1cccc(-n2c(-c3ccco3)n[nH]c2=S)c1 | 1 | 3.3 | 1 | 15% | 6.3µM* | -2
Cc1cc(F)ccc1S(=O)(=O)Nc1ccc(C(=O)N(C)Cc2ccco2)cc1 | 1 | 5.5 | -2 | -5% | u | -3
Cc1cccc(C)c1NC(=O)C(c1ccccc1OC(F)(F)F)N1CCN(c2ccc(F)cc2)CC1 (stereo not drawn) | -14 | -3.8 | -16 | x | x | -5
Fc1ccc(-c2cnc[nH]2)cc1 | -1 | -1.4 | 4 | 7% | -11% | 2
O=[N+]([O-])c1ccc(Sc2n[nH]c(-c3ccccc3)n2)nc1 | 2 | -0.3 | 0 | -15% | -9% | -5
CCN(CC)c1ccc(/C=N/N2CC(=O)NC2=S)cc1 | -12 | -2.1 | -7 | -28% | 17% | -4
COC(=O)c1ccc(NC(=O)CNc2ccccc2)cc1 | 21 | 1.7 | 2 | -30% | 23%[15.4 µM] | 9
Oc1ccc(N=Nc2ccccc2C(F)(F)F)c2cccnc12 | x | 6.4 | -11 | -3% | -35%[inhibitor] | -8
COc1cc(NC(=O)c2cc3c(CO)cnc(C)c3oc2=Nc2cccc(C(N)=O)c2)cc(OC)c1 | x | 1.1 | -10 | 0% | 17% | -4
C=CCOc1ccc(/C=C/C(=O)OCC(=O)N(C)C2CCS(=O)(=O)C2)cc1 (stereo not drawn) | -5 | -1.8 | -3 | -8% | -12% | -3
CCc1ccc(OCCn2cccn2)cc1 | 7 | -1.5 | 7 | 14% | -6%[15.4 µM] | -9
O=C(OCc1cn([C@H]2C[C@H](c3ccc(Cl)cc3)N(CC3CCCCC3)C[C@@H]2O)nn1)c1ccccc1 | 3 | -7.7 | 0 | x | -38%[inhibitor] | -2
COCCNC(=O)c1cnn2c(C(F)F)cc(-c3ccc(C)cc3)nc12 | x | -3.9 | -15 | u | 1% | -2
CC[C@@H](C)[C@H](NC(=O)C1CCN(C(=O)[C@@H](NS(=O)(=O)c2ccc(C)cc2)C(C)C)CC1)C(=O)O | -2 | -2.3 | 11 | 7% | u | -4
CC1CCC(C(C)C)C(OC(=O)C[n+]2cc(-c3ccc(Cl)cc3)n3c2CCCCC3)C1 (stereo not drawn) | -1 | 1.0 | -10 | 5% | -29% | -7
CCCNC(=O)CCc1c(C)nc2nc(C)nn2c1C | 1 | -3.2 | 8 | 12% | 2%[15.4 µM] | -7
CCOC(=O)c1c(C)[nH]c(C)c1C(=O)COC(=O)c1ccc(OC)cc1 | -4 | 2.4 | -14 | x | -2%[15.4 µM] | -3
CCOC(=O)c1nnn(-c2nonc2N)c1CN(C)Cc1ccccc1 | 0 | -8.7 | 24 | -14% | -44% | -17
COCC(=O)N1CCCC(CNS(=O)(=O)c2ccc(OC)cc2)C1 (stereo not drawn) | 4 | -1.2 | 0 | 14% | 12% | -6
CC(C)(O)CCc1c(-c2ccc(O)cc2O)oc2c3c(cc(O)c2c1=O)OC(C)(C)C=C3 | -5 | u | -8 | -4% | x | u
C[C@@H]1O[C@@H]1P(=O)(O)O | 10 | -4.3 | 4 | 0% | x | 0
CCC(=O)Nc1cccc(C2=NOC3(C2)C[C@@H](C(N)=O)N(C(=O)c2ccccc2C(=O)c2ccccc2)C3)c1 (stereo partly drawn) | -11 | 0.8 | 2 | 6% | x | -3
CCOc1cc(-c2nnn(CC(=O)N3CCCCC3)n2)ccc1OC | x | 1.2 | -1 | 0% | 2% | 20
OC(COCCC12CC3CC(CC(C3)C1)C2)CN1CCCC1 (stereo not drawn) | -21 | -5.0 | 2 | 7% | 4% | -5
C=CCn1c(CCNC(=O)c2ccccc2F)nnc1SCC(=O)Nc1ccc(OC)cc1 | -4 | -3.3 | -9 | 6% | 10%[15.4 µM] | -5
CCN(C(=O)CN1C(=O)NC(CCSC)C1=O)C1CCS(=O)(=O)C1 (stereo not drawn) | 2 | -3.7 | 5 | 8% | 5% | -2
COC(=O)CSc1nnc(C2COc3ccccc3O2)n1-c1ccccc1 (stereo not drawn) | 13 | -1.5 | 1 | -12% | 3% | 3
CCOc1ccccc1C(=O)Nc1ccccc1-c1ccccc1 | 0 | 0.4 | 8 | -15% | -12% | -15
Cc1cccn2c(=O)c3cc(C(=O)NCCc4ccccc4)c(=N)n(CCCn4ccnc4)c3nc12 | -9 | -4.5 | -15 | 7% | 31% | -4
O=[N+]([O-])c1ccc(COc2cccc3cccnc23)cc1 | 3 | 1.2 | -5 | 17% | 2%[15.4 µM] | -8
COc1ccc(-c2ccc(-c3noc(C)n3)c(OC)n2)cc1 | 16 | -2.7 | 0 | 17% | 7% | -8

Screening data from PubChem BioAssay.
